Menin MLL FP FL: menin-MLL binding inhibition, fluorescein peptide; Fluorescence polarization, fluorescein-MLL peptide displacement from menin; FP activity change, % at 61.4 µM; 290,000 tested, under 10 active; AID 1766; inconclusive = falling polarisation curve, or a change in total fluorescence; inactive = total fluorescence flat and polarisation flat or rising; no compound was filed as active; the % refers to the polarisation; negative = inhibition;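 note: % of control where 0% means no effect; inhibitors lower the polarisation; unlabelled MLL peptide was the positive control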
Sfp PPTase inh: Sfp phosphopantetheinyl transferase inhibition. Potency, µM, inactives show max response, negative = inhibition, usual class: inhibitors. AID 1490. Q9F4F7. Biochemical Sfp PPTase activity, qHTS. hit rate 3.5% among 310,000; active = well fitted inhibition curve with a large enough effect; inconclusive = small, poorly fitted or top-dose-only effect, or another doubt; inactive = no such curve, though single readings can be large or run the other way;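 note: the enzyme is Sfp with the accession as filed and its product quenches rhodamine fluorescence; potency is the fitted concentration of half-maximal effect; 0% = enzyme reaction without inhibitor and -100% = no enzyme wells; top concentration of the series not given in the record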
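Sfp 15 nM + cpd, 15 min RT; start w/ rhodamine-CoA 5 uM, BHQ-2-YbbR 12.5 uM (final); 50 mM Hepes pH 7.6, 10 mM MgCl2, 0.01% NP-40, 0.01% BSA; read 525/598 nm at 0 and 30 min.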
TRPV1 potentiator: potentiators of human vanilloid receptor 1 (TRPV1). Q8NER1. hit rate 0.02% among 320,000. potentiation, % at 8.33 µM. TRPV1-expressing cells, Fluo-8 calcium influx, capsaicin EC20 potentiation; host cell line not named in the record; control for the full effect not named in the record; active means potentiation above 80%; inconclusive means 30% to 80%; inactive means below 30%; note: 0% is about no effect
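Cells expressing TRPV1 were dye-loaded with Fluo-8 and read kinetically: 10 s baseline, 3 min after compound (agonist portion), then 2 min after EC20 capsaicin (allosteric enhancer portion). Calcium-bound dye fluorescence at 480/520 nm.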
ClpP mod: qHTS Assay for Activators of ClpP; AID 651965, 2013; hit rate 1.9% among 340,000; Potency, µM (doses to about 57.5 µM), for the others: at the top dose activity change, negative = active; purified B. subtilis ClpP, FRET peptide cleavage, 20 min; active = well fitted falling curve with a large enough effect; inconclusive = small, poorly fitted or top-dose-only effect; inactive = no such curve, though single readings can be large or run the other way; note: potency is the fitted concentration of half-maximal effect; the source files actives as falling curves though it sought activators and does not explain the sign; nearly all actives have a fitted effect of over 65% in size; many hits overshoot -100%
Target sequence (P80244 whole entry, looked up): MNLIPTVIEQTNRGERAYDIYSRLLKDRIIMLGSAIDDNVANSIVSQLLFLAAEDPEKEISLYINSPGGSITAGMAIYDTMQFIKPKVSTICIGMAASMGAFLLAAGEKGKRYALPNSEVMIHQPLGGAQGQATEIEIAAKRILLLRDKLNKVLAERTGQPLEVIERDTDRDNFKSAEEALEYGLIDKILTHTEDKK
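ClpP 10 microg/mL final, pH 8 Tris/KCl buffer with BSA, glycerol, Tween-20; compound pinned in; FRET-FV substrate; RT 20 min; Ex320/Em430; ΔFRET vs ADEP 5.8 microM, DMSO, no enzyme.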
PINK1 expr mod: modulators of PINK1 expression | PINK1 immunofluorescence, high-content cytometry, 24 h | Potency, µM (titrated, usually from 76.6 µM), inactives show at the highest dose activation (PINK1 increase), hits mostly activators | hit rate 0.2% among 410,000 | AID 624263; active = well fitted activation curve with a large enough effect; inconclusive = small, poorly fitted or top-dose-only effect; inactive = flat fitted curve, though single readings scatter; cell line not stated here;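 note: potency is the fitted concentration of half-maximal effect; % of control where 0% means no effect; nearly all actives have a fitted effect of over 65% in size; a mitochondrial uncoupler was the plate control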
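Fluorescence from anti-PINK1 antibody, together with nuclear and cell stains, was scanned on a laser-scanning cytometer. Before staining, stable-line cells were incubated 24 hours with compounds at 5 concentrations; primary antibody 12 h at 10 degrees C.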
TRPML1 ag: activates the human TRPML1 channel. Q9GZU1. hit rate 0.12% among 410,000. activation, % (test concentration not listed). TRPML1-expressing cells, Ca2+ dye fluorescence, FDSS; host cell line not named in the record; reference of the full effect not given here; in the data active = activation above about 50%; inconclusive = about 30% to 50%; inactive = below about 30%; note: 0% is about no effect; the text of the record puts the active cut at 80%
Target sequence (Q9GZU1 whole entry, looked up): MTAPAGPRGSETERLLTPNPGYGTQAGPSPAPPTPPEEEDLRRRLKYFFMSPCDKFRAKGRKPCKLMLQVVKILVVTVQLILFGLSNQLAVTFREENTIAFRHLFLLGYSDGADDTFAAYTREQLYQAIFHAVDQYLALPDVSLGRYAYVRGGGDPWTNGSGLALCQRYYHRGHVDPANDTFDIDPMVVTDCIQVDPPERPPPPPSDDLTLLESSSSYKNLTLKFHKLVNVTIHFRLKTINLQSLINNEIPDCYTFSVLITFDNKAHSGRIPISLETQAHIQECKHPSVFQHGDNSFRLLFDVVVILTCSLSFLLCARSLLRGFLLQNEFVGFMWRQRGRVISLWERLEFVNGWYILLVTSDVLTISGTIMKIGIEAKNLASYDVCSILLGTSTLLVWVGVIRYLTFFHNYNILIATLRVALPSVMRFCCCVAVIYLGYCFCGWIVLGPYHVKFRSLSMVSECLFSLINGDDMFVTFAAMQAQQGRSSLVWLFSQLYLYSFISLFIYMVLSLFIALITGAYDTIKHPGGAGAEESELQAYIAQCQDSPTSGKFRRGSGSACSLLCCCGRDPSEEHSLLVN
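Kinetic FDSS Ca2+ read in Tet-induced TRPML1-DL cells (ABD Ca8 dye plus quencher, 45-90 min RT loading): baseline, then compound, then 110 s agonist window; EC80 agonist 54-4 at 4uM final added afterwards for a 110 s antagonist window.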
TRPML1 inh: human mucolipin-1 channel inhibition; activity change, negative = inhibition, % (test concentration not listed); TRPML1-inducible cells, Ca2+ dye fluorescence, FDSS; hits give low values; inhibition of EC80 agonist-evoked calcium signal; hit rate 0.02% among 390,000; AID 624415; in the data active means activity change below about -50%; inconclusive means about -30% to -50%; inactive means above about -30%;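 note: stimulus is agonist 54-4 at its EC80 concentration; % is set by controls: 0 for no effect and ±100 for the full control effect; compound concentration not given in the record; the text of the record puts the active cut at -80%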
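Calcium fluorescence in TRPML1-DL cells induced overnight with Tet: a 110 s read after compound pin addition, then a 110 s antagonist read after challenge with 54-4 at 4 uM final (EC80).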
Active calls of the source: *; ? = inconclusive; . = not tested or not shown; & = joins results of further samples; [ ] = remark or other dose.

SMILES	Menin MLL FP FL	Sfp PPTase inh	TRPV1 potentiator	ClpP mod	PINK1 expr mod	TRPML1 ag	TRPML1 inh
COc1ccc(NC(=O)Cn2nnc(-c3ccccc3)c2COc2ccc(C(C)=O)cc2)cn1	.	.	.	0.0%	-0.1%	-0.6	.
CC(=O)Nc1ccc(OCC(O)Cn2nc(C)c(C(C)=O)c2C)cc1 (centres undefined)	0.1	14.2%	7.2	-1.6%	.	-0.2	0.2
CN(c1ccc(OCC(=O)NCCc2ccccc2)cc1)S(=O)(=O)c1ccc(Cl)cc1	.	.	4.3	0.6%	1.1%	1.2	29.5
Cc1ccc(CN(C(=O)Cn2nnc3ccccc32)C(C(=O)NCc2ccco2)c2ccc(C)o2)cc1 (centres undefined)	1.9	18.7%	14.7	0.5%	-3.1%	1.9	17.2
C/C(=N\O)C(=O)NCC1CCNCC1	1.1	9.1%	0.6	1.3%	-0.3%	-0.4	10.8
Cc1ccc(C(=O)NCC(c2ccco2)N2CCc3ccccc3C2)cc1C (centres undefined)	.	.	-19.7	0.4%	-0.7%	0.2	-4.8
Cc1ccc(NC(=O)Cn2nnc(C(=O)NCCc3ccccc3)c2N)cc1	.	.	.	-0.8%	4.2%	-0.8	-11.6
Cc1ccc(CN2CC(C(=O)OCc3ccccc3Cl)CC2=O)cc1 (centres undefined)	.	.	11.3	3.6%	2.8%	0.7	-6.0
CCOC(=O)c1[nH]c2ccccc2c1NC(=O)CN(C)C	-0.7	12.3%	-1.0	-14.7%	-1.1%	1.4	7.5
CNC(=O)c1[nH]cnc1C(=O)Nc1ccccc1C	1.0	-12.1%	-13.6	-4.1%	-1.4%	0.7	-3.4
COC(=O)c1cc(NC(=O)c2cccnc2)cc(C(=O)OC)c1	-0.5	8.8%	8.7	-0.6%	2.4%	.	.
COc1ccc(CN(C)C(=O)c2sccc2-c2ccccc2)c(OC)c1	-2.7	-4.6%	5.1	1.0%	1.4%	4.2	-0.2
CCN(CC(=O)Nc1c(F)cccc1F)C(=O)CNC(=O)C1CCCCC1	.	.	26.5	.	-2.3%	5.1	9.7
O=C(CNC(=O)c1ccc2c(c1)OCO2)NCCOc1ccc(Cl)cc1	.	.	.	-8.8%	2.1%	-0.9	2.1
Cc1ccc(CONC(=O)/N=C/N(C)C)cc1	0.6	12.2%	.	-0.6%	1.1%[38.3 µM]	-0.8	-5.3
CCCS(=O)(=O)N1CCCC(C(=O)NC2CCCCC2)C1 (centres undefined)	1.2	-6.3%	-17.3	0.3%	4.7%	0.2	9.8
CCOC(=O)/C(=C/C=C1\Sc2cc(OCC)c(OCC)cc2N1CC)C(C)=O	?	-4.1%	-7.2	.	?	77.4*	-22.8
O=C(COC(=O)CCc1c[nH]c2ccccc12)Nc1ccccc1C(F)(F)F	.	.	10.6	-1.2%	-1.2%	1.1	-9.0
CC(C)c1ccc(C(=O)Nc2ccc(CN3CCOCC3)cc2)cc1	5.0	0.8%	-25.2	.	10.0%	1.2	-9.1
COc1ccccc1C(=O)NN=C1CCN(Cc2ccccc2)CC1	3.5	-1.0%	-9.2	1.9%	3.0%	-0.3	-0.1
C[n+]1ccccc1/C=C/c1ccc2ncccc2c1	-10.7	3.4%	3.3	-16.8%	4.7%	-0.7	13.3
Cc1ccccc1OCC1Cn2c(nc3c2c(=O)n(C)c(=O)n3C)O1 (centres undefined)	0.9	4.2%	3.2	-1.4%	0.0%	-0.9	46.1
Cc1ccc(CSc2nnc(-c3ccccn3)n2N)cc1	1.3	3.9%	-22.0	2.2%	0.3%	0.9	-1.8
CC1C(=O)N(Cc2ccc(F)cc2)c2ccccc2N1C(=O)c1c(F)cccc1F (centres undefined)	-0.8	0.4%	-6.5	1.7%	-0.9%	2.0	-0.5
COc1cc(/C=C(\C#N)c2nc3ccccc3c(=O)[nH]2)cc(OC)c1OC	.	.	.	-5.9%	1.1%	0.6	16.3
OC(CNCCCN1CCCCC1)COc1ccccc1 (centres undefined)	-1.2	7.5%	-0.8	-1.5%	-3.2%	1.2	10.6
CC1=NN(c2cccc(C(=O)O)c2)C(=O)/C1=C\C=C\c1ccco1	6.5	-22.6%	-3.8	-3.5%	-0.1%	0.1	8.4
COc1ccc(CCc2c[nH]c(=O)c3cncnc23)cc1OC	.	.	.	3.4%	1.8%	-0.2	.
O=C1CN(C(=O)c2ccco2)C(c2ccc(F)cc2)c2cc(Cl)ccc2N1 (centres undefined)	.	.	.	-0.4%	2.5%[38.3 µM]	-0.2	1.7
COc1ccc(C2C3=C(CC(C)(C)CC3=O)Nc3n[nH]c(C)c32)cc1 (centres undefined)	-1.4	-8.9%	-14.6	35.5µM*	0.0%	-1.1	-1.7
O=C(Nc1cccc(F)c1)c1ccccc1-c1ccccc1	5.3	21.6%	14.6	-0.6%	3.0%	3.4	10.1
O=C(Nc1ccccc1)C1C2CCCCC21 (centres undefined)	-0.5	9.8%	-2.8	-0.7%	-0.2%	-0.2	-6.6
C=CC[C@@H](CC(=O)N(CCO)Cc1ccccc1)C(=O)N[C@@H](COC(=O)[C@H](CC=C)CC(=O)OC(C)(C)C)Cc1c[nH]c2ccccc12	.	.	.	2.5%	-0.8%	0.5	3.7
COc1ccc2c(c1)c(CC(=O)Nc1ccc(C(C)=O)cc1)c(C)n2C(=O)c1ccc(Cl)cc1	12.4	?	-23.4&2.0	-2.7%&-2.5%	2.6%&3.5%	0.7&0.4	30.5&44.1
CCCN1Cc2cccc(C(=O)NC3CCCC3)c2C1=O	2.8	10.6%	-6.4	-1.3%	-0.4%	0.9	-0.9
CCOC(=O)Cn1c(N2CCCCCC2)nc2c1c(=O)[nH]c(=O)n2C	-1.1	-0.5%	.	-3.4%	1.7%	-0.6	0.0
Cc1c(CCC(=O)NCCCn2ccnc2)c(=O)oc2cc3occ(C(C)(C)C)c3cc12	2.7	7.1%	-3.3	?	1.5%	-1.0	4.4
O=C(CN1C(=O)CCS(=O)(=O)c2ccccc21)NCc1ccc2c(c1)OCO2	-3.1	-17.1%	-3.5	-1.4%	-1.8%	-1.6	-19.6
COc1ccc(C(=O)Nc2cccc3nc(C)ccc23)cc1OC	-1.8	26.0%	-5.1	.	-0.9%	0.5	3.2
Cn1c(=O)n(C)c2cc(NC(=O)c3ccccc3NS(C)(=O)=O)ccc21	-3.7	5.4%	-4.2	0.3%	1.5%	.	.
COC(=O)C1CC(O)CN1C(=O)Nc1ccccc1 (centres undefined)	-6.0	11.9%	1.2	0.1%	-0.7%	1.7	32.4
Cc1cccc(Oc2ncc(-c3ccc(Cl)cc3)cn2)c1	3.2	8.6%	-0.8	-0.8%	16.7%	2.5	1.2
CC1CCCCN1C(=S)NC(=O)c1cccs1 (centres undefined)	-0.4	?	16.8	0.6%	0.0%	0.5	5.9
Cc1cc(C)c2[nH]c(C)c(CN3CCCCCC3)c(=O)c2c1	-0.1	12.9%	-0.7	4.1%	3.9%	0.7	-9.2
Cc1oc(CC(C)C)c(CN2CCCC2)c1C(=O)O	-0.4	5.3%	-3.2	-0.5%	0.1%	0.8	10.1
Cc1ccc(-n2ncc(C(=O)N3CCCCC3)c2C2CCN(C(=O)OC(C)(C)C)CC2)c(C)c1	.	.	.	1.0%	2.4%	0.2	12.6
Cc1ccc(CCC(=O)Nc2ccccc2F)s1	-0.5	10.7%	-7.3	.	1.4%	-0.3	0.0
CC(C)OC(=O)Cn1nc(C(c2ccccc2)c2ccccc2)oc1=O	1.0	8.0%	4.7	0.4%	2.3%	2.3	-13.4
C=CCNc1oc(-c2cccc3ccccc23)nc1C#N	6.6	-29.5%	8.1	3.16µM*	.	1.5	-11.8
COc1cc(OC)cc(C(=O)NN(CCC#N)C2=NS(=O)(=O)c3ccccc32)c1	-3.1	21.4%	11.8	-0.6%	0.0%	-0.9	0.4
O=C(CCCn1c(=O)[nH]c2ccccc2c1=O)Nc1ccc(F)cc1	-0.3	12.1%	-2.2	-1.2%	0.1%	-0.6	6.7
CN1CCN(CCC(=O)Nc2ccc(Br)cc2)CC1	-2.7	1.2%	3.8	-0.6%	-0.7%	4.1	-5.4
CN=C1SC(CC(=O)Nc2ccc(C(C)=O)cc2)C(=O)N1C (centres undefined)	.	.	.	1.5%	-1.1%	0.5	-4.8
COc1ccc(CCNC(=O)C2CCN(C(=O)c3ccccc3)CC2)cc1	-1.2	11.7%	-9.4	1.4%	2.5%	0.0	13.0
O=C(O/N=C\c1ccc(N2CCCCC2)c([N+](=O)[O-])c1)c1cccc(Cl)c1	2.6	-2.2%	-41.6	0.7%	-2.0%	2.4	-13.5
O=C1C2C3C=CC(CC3)C2C(=O)N1c1ccc(Cl)cc1Cl (centres undefined)	-0.4	17.3%	14.7	0.8%	1.5%	1.5	25.3
CCOc1ccc(NC(=O)c2[nH]c(C)c(C(C)=O)c2C)cc1	0.9	7.4%	1.3	0.8%	2.9%	-0.7	20.5
Cc1ccc(NC(=O)CSc2nccn(-c3ccc4c(c3)OCCO4)c2=O)cc1	.	.	-4.8	1.4%	0.7%	0.2	8.3
Nn1c(SCc2csc(-c3ccccc3)n2)nnc1-c1cccs1	3.6	8.9%	18.7	5.5%	12.6%	2.9	-0.8
Cc1cc(C)n(C(=O)CCC(=O)NCc2ccccc2)n1	-2.2	11.9%	-4.8	-0.5%	-1.5%[38.3 µM]	0.0	-20.1
Additional records.
SMILES	Menin MLL FP FL	Sfp PPTase inh	TRPV1 potentiator	ClpP mod	PINK1 expr mod	TRPML1 ag	TRPML1 inh
O=C(Oc1ccc(Br)cc1C(=S)N1CCOCC1)c1ccccc1	-8.1	-25.0%	?	.	0.3%	-0.1	-4.6
CC(=O)NS(=O)(=O)c1ccc(N=NN2CCCCCC2)cc1	-0.9	9.4%	-2.3	.	-0.7%	0.2	-15.5
Cc1ccc(/C=C/C(=O)Nc2cccc3cccnc23)o1	?	-29.5%	3.4	-1.6%	-1.1%	1.2	-9.1
O=C(NC1(Cc2ccccc2)CCN(CCCc2ccccc2)C1=O)c1ccccc1 (centres undefined)	.	.	-10.6	-0.1%	-1.6%	1.8	-28.2
OCCOc1cccc(CN2CCC(CO)(CCOc3ccccc3)CC2)c1	2.9	5.0%	9.2	1.6%	1.2%	0.4	50.4
CCOC(=O)C1(C)CCCCCN1C(=O)c1ccco1 (centres undefined)	.	.	.	1.3%	1.6%	-0.4	-6.5
CC1CCN(C(=O)CNS(=O)(=O)c2ccc(Br)s2)CC1	3.8	19.3%	0.6	-2.1%	-4.5%[38.3 µM]	0.4	10.2

Screens: PubChem BioAssay, National Center for Advancing Translational Sciences (NCATS)
